Menin-MLL FL inh – menin-MLL binding inhibition, fluorescein peptide. Fluorescence polarization, fluorescein-MLL peptide displacement from menin. FP activity change, % at 61.4 µM. 290,000 tested, under 10 active. AID 1766; inconclusive = falling polarisation curve, or a change in total fluorescence; inactive = total fluorescence flat and polarisation flat or rising; no compound was filed as active; the % refers to the polarisation; negative = inhibition;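 note: % of control where 0% means no effect; inhibitors lower the polarisation; unlabelled MLL peptide was the positive control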
ClpP mod – qHTS Assay for Activators of ClpP; ATP-dependent Clp protease proteolytic subunit (Bacillus subtilis (strain 168)), P80244; Potency, µM (series often up to 57.5 µM), for the others: at the highest dose activity change, negative = active; purified B. subtilis ClpP, FRET peptide cleavage, 20 min; hit rate 1.9% among 340,000; AID 651965, 2013; active = well fitted falling curve with a large enough effect; inconclusive = small, poorly fitted or top-dose-only effect; inactive = no such curve, though single readings can be large or run the other way; note: potency is the fitted concentration of half-maximal effect; the source files actives as falling curves though it sought activators and does not explain the sign; nearly all actives have a fitted effect of over 65% in size; many hits overshoot -100%
Target sequence (P80244 whole entry, looked up): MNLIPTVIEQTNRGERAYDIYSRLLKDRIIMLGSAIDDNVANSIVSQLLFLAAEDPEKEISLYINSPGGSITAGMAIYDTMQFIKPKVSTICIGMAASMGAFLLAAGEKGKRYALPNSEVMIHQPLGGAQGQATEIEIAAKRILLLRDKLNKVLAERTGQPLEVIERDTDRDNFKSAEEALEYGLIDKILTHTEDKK
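Buffer: 100 mM Tris/HCl pH8, 100 mM KCl, 0.05% low protease BSA, 2.5% glycerol, 0.01% Tween-20. ClpP 10 microg/mL final; 20 min RT; delta FRET normalized to ADEP and DMSO controls.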
gsp agonist – activates gsp, the McCune-Albright syndrome mutation; gsp mutant cells, cAMP HTRF, 30 min; control for the full effect not named in the record; Potency, µM (top dose mostly 76.9 µM), without a hit: at the top dose activation (cAMP increase), usual class: activators; hit rate 0.13% among 340,000; AID 624287; active = well fitted activation curve with a large enough effect; inconclusive = small, poorly fitted or top-dose-only effect, or another doubt; inactive = no such curve, though single readings can be large or run the other way; cell line not stated here;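 note: phosphodiesterase inhibitor Ro 20-1724 added with compounds to block cAMP breakdown; potency is the fitted concentration of half-maximal effect; nearly all actives have a fitted effect of over 60% in size; about a fifth of the inactives were tested at one dose only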
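Cells in DMEM/10% FBS with G418 were pretreated with compounds in DMSO plus […] (300 uM stock) for 30 min at 37C. cAMP was measured by HTRF (cAMP-d2 plus anti-cAMP antibody-K) after 30 min at room temperature.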
Sfp inh – blocks B. subtilis Sfp PPTase activity | Q9F4F7 | Biochemical Sfp PPTase activity, qHTS | Potency, µM, for the others: max response, negative = inhibition, actives largely listed as inhibitors | hit rate 3.5% among 310,000; active = well fitted inhibition curve with a large enough effect; inconclusive = small, poorly fitted or top-dose-only effect, or another doubt; inactive = no such curve, though single readings can be large or run the other way;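 note: the enzyme is Sfp with the accession as filed and its product quenches rhodamine fluorescence; potency is the fitted concentration of half-maximal effect; 0% = enzyme reaction without inhibitor and -100% = no enzyme wells; top concentration of the series not given in the record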
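Step 1, compound plus 15 nM Sfp-PPTase, 15 min, room temperature. Step 2, add rhodamine-CoA (5 uM) and BHQ-2-YbbR (12.5 uM). Step 3, read 525/598 nm fluorescence at 0 and 30 min.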
PINK1 expr mod – modulators of PINK1 expression; Potency, µM (series often up to 76.6 µM), for inactives: top-dose activation (PINK1 increase), actives largely listed as activators; hit rate 0.2% among 410,000; PINK1 immunofluorescence, high-content cytometry, 24 h; active = well fitted activation curve with a large enough effect; inconclusive = small, poorly fitted or top-dose-only effect; inactive = flat fitted curve, though single readings scatter; cell line not stated here;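 note: potency is the fitted concentration of half-maximal effect; % of control where 0% means no effect; nearly all actives have a fitted effect of over 65% in size; a mitochondrial uncoupler was the plate control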
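Compound titrations (5 concentrations, 24 h) on a stable cell line; DMSO and CCCP controls. Endpoint: fixed-cell PINK1 immunofluorescence with mitochondrial, cell and nuclear markers, scanned by microplate cytometer.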
gsp antag – antagonizes gsp, the McCune-Albright syndrome mutation. hit rate 0.4% among 340,000. AID 624288. Potency, µM (highest dose often 76.9 µM), inactives show at the highest dose activity change, negative = inhibition, most hits filed as inhibitors. gsp-mutant cells, cAMP HTRF, 30 min; control for the full effect not named in the record; active = falling curve of any shape with a large fitted effect; inconclusive = falling curve, mostly with a smaller effect; inactive = flat or rising curve; cell line not stated here;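 note: intracellular cAMP measured with PDE inhibitor Ro 20-1724 present during compound exposure; potency is the fitted concentration of half-maximal effect; % is set by controls: 0 for no effect and ±100 for the full control effect; nearly all actives have a fitted effect of over 65% in size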
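Measurement of cellular cAMP by homogeneous time-resolved fluorescence following a 30 min compound exposure at 37C. The PDE inhibitor […] was present throughout; the assay buffer was DPBS with 0.05% BSA and 0.005% Tween 20.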
D2 ag – activates the human D2 dopamine receptor; P14416; DiscoveRx PathHunter D2 beta-arrestin, luminescence, 90 min; 100% = 57 uM dopamine signal; activation, % (no concentration beside the values); hit rate 0.084% among 360,000; in the data active = activation above about 40%; inconclusive = about 15% to 40%; inactive = below about 15%; note: compound concentration not given in the record; the text of the record calls up to 30% inactive
Target sequence (P14416 whole entry, looked up): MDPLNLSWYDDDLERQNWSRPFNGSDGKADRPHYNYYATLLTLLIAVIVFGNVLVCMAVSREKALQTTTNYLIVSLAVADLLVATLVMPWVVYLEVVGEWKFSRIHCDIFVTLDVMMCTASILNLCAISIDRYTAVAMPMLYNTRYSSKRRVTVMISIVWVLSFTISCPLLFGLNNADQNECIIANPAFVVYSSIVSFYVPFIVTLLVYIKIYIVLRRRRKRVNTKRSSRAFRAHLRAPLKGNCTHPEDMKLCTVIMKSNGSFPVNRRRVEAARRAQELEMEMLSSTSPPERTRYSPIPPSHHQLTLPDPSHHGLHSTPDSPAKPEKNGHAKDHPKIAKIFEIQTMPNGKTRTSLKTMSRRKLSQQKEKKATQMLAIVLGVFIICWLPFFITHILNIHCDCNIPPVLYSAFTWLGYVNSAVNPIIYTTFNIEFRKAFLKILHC
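DiscoveRx PathHunter D2 beta-arrestin cells (2,100/well) attached overnight, then compound-stimulated 90 min at 37 C in HBSS/10 mM HEPES/0.1% Tween-20 buffer; beta-galactosidase complementation read by luminescence after 1 h at ambient temperature. Dopamine 57 uM final (EC100) as control.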
An asterisk follows results filed as active; ? = inconclusive; · = not tested or not shown; & = joins results of further samples; [ ] = remark or other dose.

SMILES | Menin-MLL FL inh | ClpP mod | gsp agonist | Sfp inh | PINK1 expr mod | gsp antag | D2 ag
COC(=O)c1cccnc1-n1c(=O)c2cccnc2n(Cc2cccc([N+](=O)[O-])c2)c1=O | -2.1 | 0.8% | -24% | 20% | 1.0% | 11% | -1.6
COc1ccc(C(=O)NCc2ccc(-c3nc4ccccc4s3)cc2)cc1OC | -1.5 | 7.7% | -39%[inhibitor] | 17% | 16% | -2% | -5.2
CCC1(c2ccccc2)NC(=O)N(Cc2cccc([N+](=O)[O-])c2)C1=O (stereo unspecified) | 2.7 | 2.4% | 1% | 15% | 1.7% | 9% | -1.8
CSc1nc(Oc2cccc(C(F)(F)F)c2)cc(C(F)(F)F)n1 | 1.5 | -4.1% | -10% | -6% | 2.9% | 3% | 0.1
CCCOC(=O)CCCCC1SCC(NC(=O)OC)C1NC(=O)OC (stereo unspecified) | 2.8 | -0.3% | -5% | 9% | 0.8%[38.3 µM] | -1% | -0.8
CCOc1ccccc1NC(=O)CCc1c(C)nn(-c2ccc(N3CCCCC3)nn2)c1C | 4.1 | 0.0%&-3.8% | 23% | 12% | 0.1%&1.2% | -20% | 0.8
CCOC(=O)C1=C(C)N=C2c3ccccc3C(=O)C2C1c1ccccc1 (stereo unspecified) | 0.2 | 2.6% | -6% | 18% | 5.1% | 6% | -5.2
CC(C)Oc1ccc(/C(O)=C2/C(=O)C(=O)N(CCCn3ccnc3)C2c2cccnc2)cc1 (stereo unspecified) | 4.6 | -1.0% | 13% | 7% | 2.8% | 4% | -0.7
Cc1cccc(CNc2cc(-c3ccccc3Cl)ncn2)c1 | 2.2 | · | · | 20% | -0.2% | · | ·
N#Cc1ccccc1OCC(=O)NCCNC(=O)COc1ccccc1C#N | · | 2.4% | 12% | · | 1.6% | -11% | -3.7
c1ccc2c(c1)ncn2-c1ccc(-c2ccnc3ncnn23)cc1 | 0.6 | · | -8%[15.4 µM] | 6% | 13% | -8% | -1.9
CN(C(=O)c1cccc(NC(=O)Cc2ccc(NC(=O)C3CCCN(C(=O)C4CCCC4)C3)cc2)c1)C1CCCC1 (stereo unspecified) | · | -1.3% | · | · | 0.1% | -16% | -0.5
Cc1ccc(C2=NN(C(=O)CCCC(=O)O)C(c3ccco3)C2)cc1 (stereo unspecified) | 0.1 | · | -6%[15.4 µM] | 45µM* | -0.4% | -8% | -4.1
CC1CC(=O)NN=C1c1ccc(N(C)C)c([N+](=O)[O-])c1 (stereo unspecified) | -0.3 | 1.8% | 1% | 9% | -14%[38.3 µM] | 3% | -3.1
Cc1ccc(OCC(O)Cn2c(=N)n(CCN3CCCCC3)c3ccccc32)cc1 (stereo unspecified) | 6.8 | -1.7%&1.2% | 5% | 11% | -5.0%&-0.1% | 9% | 0.2
Cc1cc(N2C(=O)CC(Cc3ccccc3)C2=O)no1 (stereo unspecified) | -0.3 | -3.6% | 2% | 10% | -0.2% | 5% | -2.4
Cc1cc(=O)[nH]c(SCc2ccc(Cl)cc2Cl)n1 | 0.9 | 0.2% | -10% | 3% | 1.2% | -12% | 0.2
COC(=O)[C@@]1(Cc2ccc(F)cc2)[C@H]2c3cc(C(=O)N(C)C)n(Cc4ccc(S(C)(=O)=O)cc4)c3C[C@H]2CN1C(=O)c1ccccc1 | 8.5 | -5.7% | · | 5% | 0.1% | · | ·
NC(=N\N=Cc1ccco1)/C(N)=N/N=Cc1ccco1 | · | · | 3% | · | 4.8% | 7% | 0.5
CC(NC(=O)C1CCCN(S(=O)(=O)c2ccc(-n3cnnn3)cc2)C1)c1ccc(F)cc1 (stereo unspecified) | · | · | 13% | 5% | 10.0% | -2% | 2.1
Cc1ccc(N(C(=O)c2csnn2)C(C(=O)NC2CCCC2)c2ccccn2)c(C)c1 (stereo unspecified) | 6.3 | · | -3%[15.4 µM] | -9% | -0.1% | 14% | 1.1
CC(=O)NCCOc1nc(N(C)C)nc(N(C)C)n1 | 0.2 | -1.8% | -1% | 19% | -1.9%[38.3 µM] | 0% | 1.8
O=[N+]([O-])c1ccc(-c2cccnc2)cc1 | · | · | 6% | · | -1.5% | -2% | 2.1
CN(/N=C/c1ccc(C(C)(C)C)cc1)C1=NCCN1 | 5.9 | · | -1%[15.4 µM] | -25% | -0.4% | 0% | -1.5
CSc1nsc(SCC(=O)NC2CCCCC2)n1 | 2.2 | 0.1% | -1% | 5% | -0.7% | 5% | 0.7
(list continues)
SMILES | Menin-MLL FL inh | ClpP mod | gsp agonist | Sfp inh | PINK1 expr mod | gsp antag | D2 ag
Cc1occc1-c1nnc(SCC(=O)N(C)CCC#N)n1N | -0.8 | -2.0% | 0% | 11% | 1.8% | 0% | -0.7
CC1CCCCC1NC(=O)NC(=O)COC(=O)c1cncc(Br)c1 (stereo unspecified) | · | 1.7% | ? | · | 1.9% | 1% | -2.0
Cc1cccc(NC(=O)CN2CCc3cc4c(cc3C2)OCCCO4)c1 | · | 0.4% | -27% | ? | 1.3% | -7% | -7.7
Cc1cc(C)c2c(=O)n3c(nc2c1)C(Cc1ccccc1)NC(=O)c1cc2ccccc2cc1-3 (stereo unspecified) | · | ? | -23% | · | 4.8% | · | -0.4
CC1=CC(C)C(C(=O)O)C(C(=O)N2CCN(C)CC2)C1 (stereo unspecified) | -0.2 | · | -2%[15.4 µM] | 9% | 0.1% | -15% | 1.5
CCOc1cc(CNn2nnnc2N)cc(Cl)c1OCC(=O)NC(C)(C)C | 0.7 | 2.5% | -11% | 10% | -0.7% | 11% | -1.4
COc1ccccc1CN1CC[C@@]2(CCCN(S(=O)(=O)c3ccccc3)C2)C1 | 0.3 | · | · | 22% | 0.4% | · | ·
N#Cc1cc(Cl)c(N2CCOCC2)cc1C#N | 1.8 | -0.4% | 0% | 1% | -2.2% | 1% | -2.5
Cc1c(F)cccc1NS(=O)(=O)c1ccc2c(c1)NC(=O)CO2 | -2.6 | · | 13% | 16% | 2.7% | -5% | 0.0
CN(C)c1ccc(NC(=O)CC(NCc2ccccn2)C(=O)O)cc1 (stereo unspecified) | -1.4 | 0.9% | 18% | -13% | 15% | -13% | -1.0
CC(=O)Oc1ccc(/C=N/NC2=NS(=O)(=O)c3ccccc32)cc1 | -8.7 | -0.4% | -10% | 9% | -2.2% | -8% | 6.9
COc1ccc(C2=NOC(C(=O)O)C2)cc1 (stereo unspecified) | 0.7 | -5.2% | 9% | 15% | · | 4% | 0.4
COC(=O)C1=C(C)N=C2SC(C)C(=O)N2C1/C=C/c1ccccc1 (stereo unspecified) | 0.2 | -0.4% | ? | 19% | -4.7% | -14% | -3.0
NC(N)=NC(N)=Nc1ccc(O)cc1 | -14 | -0.9% | -19% | 12% | -0.7% | 1% | -0.3
CN(C)C(CNC(=O)c1ccc(NS(=O)(=O)c2ccc(F)c(F)c2)cc1)c1ccccc1 (stereo unspecified) | · | 0.0% | 6%[15.4 µM] | · | 0.6% | -1% | -1.1
COc1ccc(N2CCN(S(=O)(=O)CCNC(=O)c3cc(=O)c4ccccc4o3)CC2)cc1 | · | -3.3%&-2.8% | 21% | 2% | 1.3%&-0.3% | 0% | -1.4
Cc1cc2ccccn2c1C(=O)Nc1cccc(Cl)c1 | -0.6 | · | -13%[15.4 µM] | 20% | 3.3% | · | 1.4
CC(=O)C1=C(C)NC(SCc2cccc([N+](=O)[O-])c2)=C(C#N)C1c1ccco1 (stereo unspecified) | 5.5 | -2.4% | 1% | -55% | 4.4% | -10% | -4.2
COc1ccc(/C=C/C(=O)Nc2ccc(C)c(S(=O)(=O)N3CCOCC3)c2)cc1 | · | ? | · | · | -0.8% | 32µM* | ?
CC(C)(C)NC(=O)C[n+]1ccc(C(N)=O)cc1 | -1.5 | 0.4% | ? | 10% | -0.5% | 19% | -5.7
O=[N+]([O-])c1ccc(NC(=S)NCC(c2cccnc2)N2CCOCC2)cc1 (stereo unspecified) | -0.5 | · | ? | -18% | -0.5% | 2% | ?
CCOC(=O)C(=NC1CCS(=O)(=O)C1)NNc1cc(Cl)ccc1Cl (stereo unspecified) | -1.5 | · | -15%[15.4 µM] | -6% | -0.3% | ? | -1.1
O=c1ccn(-c2ccccc2)[nH]1 | -1.8 | · | -3%[15.4 µM] | -3% | 0.5% | · | 3.4
CCOc1ccc2oc(=O)cc(CN3CCN(C(=O)c4ccco4)CC3)c2c1 | · | -8.6% | -53%[inhibitor] | -1% | -0.6% | -12% | 0.3
COC(=O)c1ccc(N(CC(=O)NC2CCCCC2)C(=O)CNC(=O)c2ccco2)cc1 | -1.3 | · | 0% | 10% | 1.7% | 2% | -4.6
CC1CCCC(C)N1C(=O)COC(=O)CCc1nc2ccccc2c(=O)[nH]1 (stereo unspecified) | -0.4 | -9.0% | ? | 9% | 0.0% | 12% | -4.0
CC(C)Oc1cc(S(=O)(=O)N2CCCCC2)ccc1N | 0.7 | · | -10% | -9% | 1.0% | 16% | 0.0
O=C(NCCCn1ccnc1)C(=O)NCC(c1cccnc1)N1CCN(c2ccc(F)cc2)CC1 (stereo unspecified) | 4.8 | -2.6% | -12% | -26% | 0.2% | 0% | -11
COc1ccc(NC(=O)c2cccc(S(=O)(=O)Nc3ccc(Br)cc3)c2)cn1 | -19 | -0.2% | 3%[15.4 µM] | 14% | 14µM* | ? | -1.9

Record cards, from the list above:
CC(=O)C1=C(C)NC(SCc2cccc([N+](=O)[O-])c2)=C(C#N)C1c1ccco1 (stereo unspecified) is listed as Menin-MLL FL inh: 5.5; ClpP mod: -2.4%; gsp agonist: 1%; Sfp inh: -55%; PINK1 expr mod: 4.4%; gsp antag: -10%; D2 ag: -4.2
O=c1ccn(-c2ccccc2)[nH]1 is listed as Menin-MLL FL inh: -1.8; ClpP mod: ·; gsp agonist: -3%[15.4 µM]; Sfp inh: -3%; PINK1 expr mod: 0.5%; gsp antag: ·; D2 ag: 3.4

Screening results as filed in PubChem BioAssay.
